Bioassay records deposited in PubChem by National Center for Advancing Translational Sciences (NCATS).
VDR inhibitor = inhibitors of human vitamin D receptor; hit rate 0.93% among 400,000; Potency, µM, inactives show max response, negative = inhibition, actives largely listed as inhibitors; P11473; VDR-SRC2-3 peptide fluorescence polarization, 2 h; active means well fitted inhibition curve with a large enough effect; inconclusive means small, poorly fitted or top-dose-only effect, or another doubt; inactive means no such curve, though single readings can be large or run the other way; further: series mostly up to about 120 µM
Target sequence (P11473 whole entry, looked up): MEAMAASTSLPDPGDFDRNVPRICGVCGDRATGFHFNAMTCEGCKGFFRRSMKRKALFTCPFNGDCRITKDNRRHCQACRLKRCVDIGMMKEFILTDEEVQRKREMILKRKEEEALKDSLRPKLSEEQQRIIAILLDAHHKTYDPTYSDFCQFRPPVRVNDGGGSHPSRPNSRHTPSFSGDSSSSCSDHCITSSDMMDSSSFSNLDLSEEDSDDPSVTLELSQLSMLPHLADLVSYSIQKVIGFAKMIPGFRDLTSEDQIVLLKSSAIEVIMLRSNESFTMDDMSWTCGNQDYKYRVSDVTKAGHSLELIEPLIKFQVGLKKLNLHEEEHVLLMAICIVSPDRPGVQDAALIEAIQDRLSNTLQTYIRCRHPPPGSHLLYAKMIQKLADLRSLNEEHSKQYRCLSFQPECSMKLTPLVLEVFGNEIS
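Two reagent solutions held at 4 deg C in the dark were dispensed, compounds pinned at 23 nl, and the mixture incubated 2 h at room temperature. Read-out: fluorescence polarization of VDR–SRC2-3 peptide binding.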
Starred values were filed as active, the others as inactive; ? = inconclusive; & = joins results of further samples; [ ] = remark or other dose. On the % scale 0 is the no-effect control and ±100 the full control effect; potency means the concentration at half of the fitted maximal effect. Some of the compounds tested, so the mix of outcomes need not match the whole.

compound	VDR inhibitor
CC(=O)N(C1=NCCCS1)c1ccc(Cl)cc1	-14%
O=c1[nH]c(=S)[nH]c(O)c1N=Nc1ccc(S(=O)(=O)N2CCOCC2)cc1	-14%
COc1ccc(C(CNC(=O)c2ccc3c(c2)CCC3)N(C)C)cc1 (stereo not drawn)	-19%
Cc1ccc(OCC(=O)N2CCN(CC3CC4C=CC3C4)CC2)cc1 (stereo not drawn)	14%
O=C(CCn1nc(-c2ccc(Cl)cc2)ccc1=O)N1CCC2(CC1)OCCO2	10%
Cc1ccc(C2CC(=O)C(C=NCCN3CCN(C(=O)Cc4ccccc4)CC3)=C(O)C2)cc1 (stereo not drawn)	-16%
Cc1ccc(-c2cc(-c3ccc(C)cc3)[n+](-c3ccc(C(=O)O)cc3)c(-c3ccc(C)cc3)c2)cc1	-9%
COc1cc(OC)c(OC)cc1CNCCc1ccc(F)cc1	-1%
CC(C)C(=O)N1CCN(CCN=Cc2c(O)n(C)c(=O)n(C)c2=O)CC1	9%
C[C@]12CC[C@@H]3c4ccc(OC(=O)N(CCCl)CCCl)cc4CC[C@H]3[C@@H]1CC[C@@H]2O	50µM*

The results go on.
compound	VDR inhibitor
CN(CC#CCN1CCCC1)C(=O)c1cccc(Cl)c1	-13%
CN(C)CC#CCC(O)(c1ccccc1)C1CCCC1 (stereo not drawn)	-4%
CC(=O)C1(c2ccccc2)CCNCC1	12%
CC(c1ccccc1)n1cncc1C(=O)N1CCCC1=O (stereo not drawn)	-6%
Cc1ccsc1C(=O)C1CCCN(Cc2c(C)nn(C(C)C)c2C)C1 (stereo not drawn)	-10%
c1ccc2c(NC3=NCCS3)cccc2c1	5%
C[C@]12CC[C@H](O)CC1=CCC1C2CC[C@@]2(C)C1C[C@@H](O)[C@@H]2O (stereo partly drawn)	1%
COc1ccc2nc(NC3=NCCN3)sc2c1	1%
CC(=O)c1cn(Cc2ccccc2C#N)c2ccccc12	-18%
Cc1ccccc1-n1c(O)c(/C=N/c2nccs2)c(=O)[nH]c1=O	5%&-20%

Following part:
compound	VDR inhibitor
O=c1[nH]c(=O)n(CCC2=CCCCC2)c(O)c1C=Nc1cccc(F)c1	21%
CCCCSP1(=S)NCCCO1 (stereo not drawn)	-5%
CCOC(C(=O)OCCC[N+](C)(CC)CC)(c1ccccc1)c1ccccc1	7%
Cc1ccc(C(=O)Nc2scc(-c3ccccc3)c2C(=O)O)cc1	98%[activator]
O=[N+]([O-])c1cccc(CN2CCN(Cc3ccc(Br)cc3)CC2)c1	33%[activator]
CC(=O)Nc1ccccc1C(=O)OCc1ccc(F)cc1	11%
CC1CN=C(NCc2ccccc2Cl)S1 (stereo not drawn)	-3%
COc1ccc(OC)c(C(O)C(C)N)c1 (stereo not drawn)	-3%&-10%&10%
COC(=O)C1=C(c2cccc(C#N)c2)C[C@@H]2CC[C@H]1N2C(=O)NC1CCCCC1	-5%
COC(=O)C1=C(c2ccc(F)cc2OCc2ccccc2)C[C@@H]2CC[C@H]1N2C(=O)NCCOc1ccc(OC)cc1	-18%

Next results
compound	VDR inhibitor
O=C(CCc1ccc(O)cc1)N1C[C@H]2C[C@@H](C1)c1cccc(=O)n1C2	-2%
O=C(CN1CCOCC1)c1cccc2ccccc12	-20%
O=C(CNS(=O)(=O)c1ccc(Br)s1)N1CCC2(CC1)OCCO2	12%
OC(C#CCN1CCOCC1)(c1ccccc1)C1CCCC1 (stereo not drawn)	11%
O=C(c1cn(Cc2ccccc2)c2ccccc12)N1CCCCC1	-15%
C[C@]12CC[C@@H](O)C[C@H]1CC[C@@H]1[C@@H]2CC[C@]2(C)C(=O)CC[C@@H]12	-11%
Cc1cccc(NC(=O)C(C)N2CC=C(c3ccccc3)CC2)c1 (stereo not drawn)	-8%
CCCCn1c(=O)c(C(=O)Nc2ccccc2N)c(O)c2ccccc21	-17%
O=c1[nH]c(=O)n(C2CCCCC2)c(O)c1C1NCCc2ccccc21 (stereo not drawn)	?
C=C(CC1CC(O)[C@]2(C)OC3CC4OC5C[C@]6(C)O[C@]7(C)CCC8OC9C[C@]%10(C)OC%11C(C)=CC(=O)OC%11CC%10OC9C[C@@H](C)C8OC7CC6O[C@]5(C)C/C=C\C4OC3CC2O1)C(=O)O (stereo partly drawn)	-21%

Further compounds.
compound	VDR inhibitor
c1cc(OCCN2CC2)ccn1	-29%
CC1CC=CCC12C(=O)NC(=S)NC2=O (stereo not drawn)	-13%
COc1cc(C)cc2oc(=O)c(CC(=O)N3C[C@H]4C[C@@H](C3)c3cccc(=O)n3C4)c(C)c12	18%
CCOc1ccccc1-n1c(O)c(C=NCCCn2ccnc2)c(=O)[nH]c1=O	9%
CN(C)S(=O)(=O)c1cc(C(=O)N2CCC(C(=O)O)(c3ccccc3)CC2)ccc1Cl	-17%
C=CCn1c(O)c(C=Nc2ccc(OC)cc2C)c(=O)[nH]c1=O	-4%
Cc1nc2ccccc2c(=O)n1/N=C/c1cc(Br)cc(Br)c1O	-2%
NP(=O)(OCC(F)(F)F)Oc1cccc2ccccc12 (stereo not drawn)	-14%
O=[N+]([O-])c1ccc(NCCNc2ccc([N+](=O)[O-])cc2)cc1	?
CN1CCC(N(C)c2ncnc3ccc(Br)cc23)CC1	-1%

(continued)
compound	VDR inhibitor
Cc1cccc(-n2nc(C)c3c2NC(=O)CSC3c2ccccc2Cl)c1 (stereo not drawn)	4%
COCc1cc(C2SCC(=O)Nc3c2c(=O)[nH]n3C(C)C)ccc1OC (stereo not drawn)	10%
Cc1c(C(=O)N2CCC3(CC2)OCCO3)oc2ccc(S(=O)(=O)N3CCCCC3)cc12	-16%
NC(=O)c1ccc(OCCC(O)N2CC=C(c3ccc(F)cc3)CC2)cc1 (stereo not drawn)	-2%
COC(=O)C1=C(c2cc3ccccc3o2)C[C@@H]2CC[C@H]1N2C(=O)NCc1ccc(F)cc1	1%
COC(=O)C1=C(c2cccc(NC(C)=O)c2)C[C@@H]2CC[C@H]1N2C	4%
COc1cccc(-n2c(C)nc3ccccc3c2=O)c1	29%
CC1(C)NC(=S)C(C)(C)N1N=O	8%
O=C(COc1ccc(Cl)cc1)N1CCN(C/C=C/c2ccccc2)CC1	-6%
Cc1cc(=O)[nH]c(SCc2nc3ccccc3c(=O)n2-c2ccccc2C)n1	-11%

(more compounds)
compound	VDR inhibitor
CCCOC(=O)c1cc2c(cn1)[nH]c1ccccc12	-14%
CN1C[C@@H](C(=O)N[C@@]2(C)O[C@]3(O)C4CCCN4C(=O)[C@@H](Cc4ccccc4)N3C2=O)C=C2c3cccc4[nH]cc(c34)C[C@@H]21 (stereo partly drawn)	14µM*
O=c1c2ccccc2nc(-c2ccccc2)n1-c1cccc(O)c1	-11%
O=C(N/N=C/c1c(O)n(C2CCCCC2)c(=S)[nH]c1=O)c1ccccc1	-28%
C[C@H]1CC[C@@]2(C)[C@@H](CC[C@@H]3[C@@H]2CC[C@]2(C)[C@@H](O)CC[C@@H]32)C1	-14%
CC(C)(C)c1cc([N+](=O)[O-])cc(C(C)(C)C)c1O	-29%
Nc1ccccc1C(=O)c1ccccc1	4%
N/C(=N\[N+](=O)[O-])N1CCN(C(=O)Oc2ccccc2)CC1	-6%
C=CCN1C(=O)NC(=O)/C(=C/c2cccn2C)C1=O	9%
O=C(O)CCn1cc(C=C2C(=O)NC(=O)NC2=O)c(-c2cc3ccccc3oc2=O)n1	-9%

More compounds:
compound	VDR inhibitor
CCCC(C)(COC(N)=O)COC(N)=O	13%
O=C(Cc1ccccc1)N1CCN(Cc2cccc(Br)c2)CC1	-25%
O=C(C(Cc1ccccc1)NS(=O)(=O)c1cccc2nsnc12)N1CCC2(CC1)OCCO2 (stereo not drawn)	9%
CCCc1c(C)nc(SCC(=O)C(C)(C)C)nc1OC(=O)N(C)C	-6%
O=C(Cn1c(=O)c(C(F)(F)F)nc2ccccc21)N1CCC2(CC1)OCCO2	-13%
CC1C(=O)OC2CCN3CC=C(COC(=O)[C@](C)(O)[C@]1(C)O)C23 (stereo partly drawn)	10%
CN1CCc2c(c(N3CCCCC3)nc3n[nH]c(N)c23)C1	16%
CCOc1ccc(C2CC(c3c(O)n(C)c(=O)n(C)c3=O)=NN2)cc1 (stereo not drawn)	-9%
CN1C(=O)C(=Cc2cn(CC#N)c3ccccc23)C(=O)N(C)C1=O	-16%
C#CCOc1cc(C2C3=C(COC3=O)Nc3cc4c(cc32)OCO4)ccc1OC (stereo not drawn)	0%

Carrying on:
compound	VDR inhibitor
COC(=O)C1=C(c2ccc3ccccc3c2)C[C@@H]2CC[C@H]1N2C(=O)NCC1CC1	-25%
COc1cc2c(cc1OC)C13CCN4C=C5CCOC6CC(=O)N2C1C6C5CC43 (stereo not drawn)	-2%
CCCSc1nc2ccccc2c(=O)n1-c1ccccc1OC	-8%
COC(=O)C1=C(c2ccc3ccccc3c2)C[C@@H]2CC[C@H]1N2C(=O)NCCNC(C)=O	-11%
N#CC(C#N)=NNc1ccc(-n2ccc(C(F)(F)F)n2)cc1	20µM*
CC(C)Oc1cc(-n2c(=S)[nH]c3ccccc3c2=O)c(Cl)cc1Cl	1%
COc1cc(OC)cc(C(=O)Nc2ccc(Br)cc2C(=O)c2ccccc2)c1	?
Cc1ccc(OCC(=O)N2CCN(Cc3ccc(F)cc3)CC2)cc1	7%
CCCC(C)(COC(N)=O)COC(=O)NC(C)C (stereo not drawn)	5%&1%&0%
O=[N+]([O-])c1ccc(NCCO)c2ncccc12	-6%

Additional entries.
compound	VDR inhibitor
O=c1c2ccccc2nc(CNCc2ccco2)n1-c1ccc(F)cc1	0%
N#CC(C#N)=Cc1ccc(-c2ccccc2F)o1	?
O=C1NC(=S)NC(=O)C1C(=O)Nc1ccccc1	-22%
COc1ccc(N2C(=O)/C(=C/c3cc(C)n(-c4ccc(C)cn4)c3C)C(=O)NC2=S)c(OC)c1	-10%
O=c1[nH]c(=S)[nH]c(O)c1N=Nc1cc(S(=O)(=O)Nc2ccc(Cl)cc2)ccc1Cl	27%
CCC(=O)O[C@@](Cc1ccccc1)(c1ccccc1)[C@@H](C)CN(C)C	0%
Cc1ccc(C2N(c3cc(C)on3)C(=O)C3CCCN32)cc1 (stereo not drawn)	8%
CCCCC1(C2CCCC2)Cc2cc(OCCCC(=O)O)c(Cl)c(Cl)c2C1=O (stereo not drawn)	40µM*
CC(=O)O[C@H]1CCC2C3CC[C@H]4[C@@H](O)[C@H](O)CC[C@]4(C)C3CC[C@@]21C (stereo partly drawn)	5%
CNC(=O)ON(C(=O)NC)C1N(C)C(=S)SC1(C)C (stereo not drawn)	-2%
CCOc1cccc(=NC2CCCCC2)c2c(C)[nH]c(C)c12	8%
CCC(=O)OC1(c2ccccc2)CCN(C)CC1C (stereo not drawn)	-24%&-2%
CC(=O)OC1(c2ccccc2)CC(C(C)(C)C)CN(C(C)(C)C)C1 (stereo not drawn)	-21%

Among those listed so far, 20 have four or more nitrogen atoms.
compound	VDR inhibitor
O=c1[nH]c(=S)[nH]c(O)c1N=Nc1ccc(S(=O)(=O)N2CCOCC2)cc1	-14%
CC(C)C(=O)N1CCN(CCN=Cc2c(O)n(C)c(=O)n(C)c2=O)CC1	9%
COc1ccc2nc(NC3=NCCN3)sc2c1	1%
Cc1ccccc1-n1c(O)c(/C=N/c2nccs2)c(=O)[nH]c1=O	5%&-20%
CCOc1ccccc1-n1c(O)c(C=NCCCn2ccnc2)c(=O)[nH]c1=O	9%
O=[N+]([O-])c1ccc(NCCNc2ccc([N+](=O)[O-])cc2)cc1	?
CN1CCC(N(C)c2ncnc3ccc(Br)cc23)CC1	-1%
Cc1cc(=O)[nH]c(SCc2nc3ccccc3c(=O)n2-c2ccccc2C)n1	-11%
CN1C[C@@H](C(=O)N[C@@]2(C)O[C@]3(O)C4CCCN4C(=O)[C@@H](Cc4ccccc4)N3C2=O)C=C2c3cccc4[nH]cc(c34)C[C@@H]21 (stereo partly drawn)	14µM*
O=C(N/N=C/c1c(O)n(C2CCCCC2)c(=S)[nH]c1=O)c1ccccc1	-28%
N/C(=N\[N+](=O)[O-])N1CCN(C(=O)Oc2ccccc2)CC1	-6%
O=C(O)CCn1cc(C=C2C(=O)NC(=O)NC2=O)c(-c2cc3ccccc3oc2=O)n1	-9%
O=C(C(Cc1ccccc1)NS(=O)(=O)c1cccc2nsnc12)N1CCC2(CC1)OCCO2 (stereo not drawn)	9%
CN1CCc2c(c(N3CCCCC3)nc3n[nH]c(N)c23)C1	16%
CCOc1ccc(C2CC(c3c(O)n(C)c(=O)n(C)c3=O)=NN2)cc1 (stereo not drawn)	-9%
CN1C(=O)C(=Cc2cn(CC#N)c3ccccc23)C(=O)N(C)C1=O	-16%
N#CC(C#N)=NNc1ccc(-n2ccc(C(F)(F)F)n2)cc1	20µM*
COc1ccc(N2C(=O)/C(=C/c3cc(C)n(-c4ccc(C)cn4)c3C)C(=O)NC2=S)c(OC)c1	-10%
O=c1[nH]c(=S)[nH]c(O)c1N=Nc1cc(S(=O)(=O)Nc2ccc(Cl)cc2)ccc1Cl	27%
CNC(=O)ON(C(=O)NC)C1N(C)C(=S)SC1(C)C (stereo not drawn)	-2%

Retrieved by compound from the list above (3):
compound	VDR inhibitor
CCCOC(=O)c1cc2c(cn1)[nH]c1ccccc12	-14%
Cc1ccc(C2CC(=O)C(C=NCCN3CCN(C(=O)Cc4ccccc4)CC3)=C(O)C2)cc1 (stereo not drawn)	-16%
O=C(c1cn(Cc2ccccc2)c2ccccc12)N1CCCCC1	-15%
